Mtb bLac sens = beta-lactam sensitization of Mtb H37Rv, H37Rv. hit rate 0.27% among 330,000. AID 434955, 2010. inhibition, % at 25 µM. M. tuberculosis H37Rv growth with meropenem, percent inhibition; hits of this screen are not shown here;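 active = about 74% or more and at least 40 points above the plate without the antibiotic, then above 30% in a dose series; inconclusive = first-round hits that could not be retested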;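 also: growth measured after seven days incubation then overnight dye step; 0% = bacteria only wells and 100% = bacteria with antibiotic; twin plates without the antibiotic show which effects depend on it; some results filed as inactive read as strong as hits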
RecA intein inh = Mtb RecA intein splicing inhibitors, primary screen, biochemical, fluorescence, HTS | AID 2221, 2009 | hit rate 0.75% among 290,000 | inhibition, %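 (about 9 µM by stock and volumes)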 | cell-free RecA intein splicing | Protein RecA (Mycobacterium tuberculosis (strain ATCC 25618 / H37Rv)), P9WHJ3; in the data active = inhibition above about 30%; inconclusive = no clear call, values can overlap the other calls;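 also: 0% = vehicle wells and 100% = reference inhibitor control wells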
Target sequence (P9WHJ3 whole entry, looked up): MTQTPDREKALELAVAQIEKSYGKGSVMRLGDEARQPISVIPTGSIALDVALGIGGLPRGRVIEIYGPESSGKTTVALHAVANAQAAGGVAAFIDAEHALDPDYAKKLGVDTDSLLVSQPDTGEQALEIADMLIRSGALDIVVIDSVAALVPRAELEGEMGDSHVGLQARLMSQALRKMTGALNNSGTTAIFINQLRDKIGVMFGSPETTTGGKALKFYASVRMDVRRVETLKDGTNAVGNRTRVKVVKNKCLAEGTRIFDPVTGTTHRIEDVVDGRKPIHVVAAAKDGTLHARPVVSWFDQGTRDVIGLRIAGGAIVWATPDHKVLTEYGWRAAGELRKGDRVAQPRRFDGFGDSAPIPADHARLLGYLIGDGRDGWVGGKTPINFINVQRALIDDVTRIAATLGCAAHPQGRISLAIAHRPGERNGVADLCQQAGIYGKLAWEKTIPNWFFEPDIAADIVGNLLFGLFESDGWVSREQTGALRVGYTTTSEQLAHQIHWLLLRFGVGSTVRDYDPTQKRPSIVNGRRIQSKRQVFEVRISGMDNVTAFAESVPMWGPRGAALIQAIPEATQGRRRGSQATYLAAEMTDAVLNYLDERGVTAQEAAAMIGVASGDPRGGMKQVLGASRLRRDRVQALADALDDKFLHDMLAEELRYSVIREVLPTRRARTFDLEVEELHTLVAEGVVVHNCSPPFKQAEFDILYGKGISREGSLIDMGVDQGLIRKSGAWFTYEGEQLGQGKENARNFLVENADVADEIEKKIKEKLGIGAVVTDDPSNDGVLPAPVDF
YopH PTP inh = YopH tyrosine phosphatase inhibitors, primary screen, biochemical, fluorescence Ex485/Em525; YopH tyrosine phosphatase [Yersinia enterocolitica]; inhibition, %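 (about 10 µM by stock and volumes)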; hit rate 0.16% among 140,000;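 active = inhibition of 50% or more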;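 also: controls were vehicle for no effect and minimum signal wells for full effect; inactives centre near -20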
Mtb H37Rv = M. tuberculosis H37Rv growth inhibitors, H37Rv strain (AID 1626); hit rate 0.95% among 220,000; inhibition, % at 10 µM; hits with a dose series show IC50 in µM; M. tuberculosis H37Rv growth inhibition; higher % means a stronger effect;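 active = confirmed in a dose series; inconclusive = inhibition above 80% but not taken into the dose series; inactive = below 80% or under 30% at every dose of the series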;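 also: bacteria incubated seven days before Alamar blue readout; 0% = bacteria only wells and 100% = bacteria with antibiotic wells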
Arbovirus inh = antivirals against arbovirus infection, primary screen, cell-based, full library, 10K replicate subset. arbovirus infection cell-based antiviral screen. hit rate 0.37% among 200,000. inhibition, % at 10 µM. AID 1251, 2008;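 active = inhibition from about 30%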;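 also: bluetongue infection of BSR cells; cell survival read as ATP light after 72 h; 0% = infected wells without compound and 100% = uninfected wells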
Arbovirus inh repeat = recorded beside Arbovirus inh, whose call it bears; inhibition, %; measured here: 10K subset replicate screen; many hits read low in the repeat;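 first of two repeat runs on a subset; 0% = infected and 100% = uninfected wells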
The depositor's hits bear a star; u = inconclusive; x = no result given. The list is partial (hit frequency here may not be typical).

SMILES	Mtb bLac sens	RecA intein inh	YopH PTP inh	Mtb H37Rv	Arbovirus inh	others
CCC(Sc1nc2sc(C(=O)OC)c(C)c2c(=O)n1N)C(=O)NCC1CCCO1 (stereo unspecified)	1	-1.6	-105	4%	3
O=C(CSc1ncn[nH]1)Nc1ccc(Br)cc1F	97	-3.6	-48	29µM*	-11
CCOC(=O)N1CCN(C(=O)CSc2nc3c(cnn3-c3ccc(Cl)cc3)c(=O)[nH]2)CC1	-8	0.4	-34	2%	4
COc1ccc(NC(=O)c2cc(NC(=O)C3CCCCC3C(=O)O)ccc2N2CCOCC2)cc1 (stereo unspecified)	-8	0.0	x	x	x
Nc1ccc(-n2nncc2-c2ccco2)cc1	-12	-2.8	7	2%	-1
COc1ccc(N2CCN(C(=O)Nc3ccccc3Cl)CC2)cc1	-4	0.4	x	-4%	-10
CCn1ccnc1[C@@H]1C[C@H]2CN(Cc3cccc(Cl)c3)C(=O)[C@]23CCCN13	-3	-0.3	x	-5%	6
Cc1ccc(-n2nnc3c(=O)n(Cc4ccccc4C)cnc32)cc1	-7	1.5	-29	1%	0	Arbovirus inh repeat=2
COc1ccc(-c2c(C)nn3c(Cl)c(C)c(C)nc23)cc1	1	6.3	x	x	x
O=c1[nH]c2c(s1)C(c1cccnc1)C1C3CCC(C3)C1S2 (stereo unspecified)	-6	-20	x	-5%	x
CN(CC(=O)Nc1ccc(Cl)c(S(=O)(=O)N(C)C)c1)Cc1ccccc1	-3	-1.4	x	x	x
Cc1ccc(-n2c3c(cc(C(=O)NCCCN4CCOCC4)c2=O)C(=O)CC(C)(C)C3)cc1	-5	-2.1	x	-1%	1
O=C(Cc1ccc(F)cc1)Nc1cccc(-c2ccc3nncn3n2)c1	-3	x	x	2%	-1
CC(C)C(=O)Nc1ccc(C(=O)N/N=C/C2CC3C=CC2C3)cc1 (stereo unspecified)	-1	x	-19	9%	-1
Cc1cc(NC(=O)Cc2ccc(Br)cc2)no1	2	0.0	x	x	x
CC(=O)c1cccc(NC(=S)Nc2ccn(Cc3cccc4ccccc34)n2)c1	5	8.4	x	7%	6
Cc1cccc(NC(=O)CC2SC(=O)N(c3ccccc3)C2=O)c1 (stereo unspecified)	-14	-2.6	-11	-1%	6
CCOc1ccc2ccccc2c1/C=N\NC(=O)OC	u	-6.1	-30	7%	-2
Cc1cccc(C)c1NC(=O)COc1ccc2c(C)c(Cc3ccccc3)c(=O)oc2c1	0	0.2	-30	-4%	-8
O=C1CC(c2ccco2)CC(O)=C1C=NCCN1CCN(C(=O)Nc2ccc(Cl)cc2)CC1 (stereo unspecified)	-2	0.7	-33	7%	16
O=C(CCCN1C(=O)c2ccccc2C1=O)Nc1nccs1	5	3.5	-28	-7%	6
CC(=O)C[C@H]1c2cc(C(F)(F)F)ccc2S(=O)(=O)N1c1ccccc1	-9	2.7	x	-4%	x
COc1ccc(NS(=O)(=O)c2cccc3cccnc23)cc1Cl	-3	0.4	x	x	x
CCOc1ccc(S(=O)(=O)N/N=C(\C)c2ccc3c(c2)OCO3)cc1	2	-2.5	x	x	x
O=C(O)[C@H](CSCc1ccccc1)NS(=O)(=O)c1ccc(F)cc1	-15	0.8	-35	-5%	8
Additional compounds follow.
SMILES	Mtb bLac sens	RecA intein inh	YopH PTP inh	Mtb H37Rv	Arbovirus inh	others
CC(NC(=O)Cn1cc(C(=O)C2CC2)c2ccccc21)c1ccccc1 (stereo unspecified)	-9	-0.4	-17	7%	-1
CCCc1cc(=O)oc2cc(OCC(=O)Nc3ccccn3)ccc12	8	-1.6	x	x	x
CCn1c(/C=C/c2ccccc2C)nc2ccccc2c1=O	-6	-0.1	x	5%	x
O=C(O)CNC(=O)c1nc(-c2ccccc2)n(-c2ccccc2)n1	3	-0.7	-14	4%	-1
COc1cccc(NC2=C(NCCO)C(=O)c3ccccc3C2=O)c1	-3	11	x	x	x
COc1cccc2oc(-c3ccco3)cc(=O)c12	-10	-1.8	-33	-9%	7
Cc1cccc(/C(N)=N/OC(=O)c2ccc(Cl)cc2Cl)c1	19	-7.0	-33	6%	-2
O=C(O)c1ccc2ncsc2c1	3	24	x	-4%	x
O=S(=O)(Nc1ccc2c(c1)nc1n2CCOC1)c1ccccc1	-20	-3.5	-26	-11%	-8
COc1ccc(Cl)cc1Nc1nc(NCCO)nc(N2CCCCC2)n1	-6	-6.1	x	16%	x
CC1c2cc3c(cc2CCN1C(=O)c1cccc(Cl)c1)OCCCO3 (stereo unspecified)	4	6.0	x	x	x
O=C(Cn1c(=O)oc2cc(S(=O)(=O)N3CCCC3)ccc21)Nc1ccc(C(F)(F)F)cc1	-10	1.4	-30	-1%	14
CS(=O)(=O)c1cccc(C(=O)Nc2ccc(-c3nc4ccccc4[nH]3)cc2)c1	1	-1.4	x	x	x
Cc1nn(C(=O)Cn2ccc([N+](=O)[O-])n2)c(C)c1Br	-7	-4.9	-36	1%	1
O=S(=O)(/C=C/c1ccccc1)N1CCN(c2ccccc2)CC1	-13	-7.9	-17	9%	0
O=C(CSc1nnnn1-c1ccccc1)Nc1nsc(-c2ccccc2)n1	2	0.1	-5	0%	16
CCn1c(=S)sc2c(=O)n(CC(=O)Nc3ccccc3OC)c(C)nc21	-4	0.3	x	x	x
O=c1[nH]cc(-c2ccccc2)c(=O)[nH]1	-3	3.7	x	-7%	x
COc1ccc(N2C(=O)/C(=C/c3ccco3)C(=O)NC2=S)cc1	2	18	x	x	x
COc1ccc(-c2nc(CN3CCN(c4ccccc4OC)CC3)c(C)o2)cc1	15	0.6	x	1%	18
COc1ccccc1/C=N/NC(=O)NC12CC3CC(CC(C3)C1)C2	99	2.0	x	x	x
O=C(Oc1ccc(-c2cnc3ccccc3n2)cc1)c1cc([N+](=O)[O-])ccc1Cl	93	0.8	4	72%	-1
O=C(NC(=S)N1CCCC1)c1ccc(Cl)cc1	87	-0.7	x	x	x
Cc1cc(SCC(=O)Nc2cccc(S(=O)(=O)NC3=NCCCCC3)c2)nc2ccccc12	-1	5.7	x	4%	x
Cc1ccc(Nc2c(-c3ccco3)nc3ccccn23)cc1	2	-2.8	-25	7%	10
Next section:
SMILES	Mtb bLac sens	RecA intein inh	YopH PTP inh	Mtb H37Rv	Arbovirus inh	others
COc1ccccc1-c1nc(-c2ccc(Br)cc2)no1	-1	1.0	-8	5%	3	Arbovirus inh repeat=0
O=C(COc1ccccc1)N1CCN(CCN2C(=O)c3cccc4cccc(c34)C2=O)CC1	-3	1.1	x	0%	0
CCOC(=O)C1=C(C)N(C)C(=O)NC1c1cccc([N+](=O)[O-])c1 (stereo unspecified)	-1	-2.4	x	-10%	x
Cc1cc(C)n(Cc2ccc(C(=O)NCCC3=CCCCC3)o2)n1	-2	1.1	-39	4%	-7
CC(=O)N/N=C(\C)c1ccc2c(c1)OCCO2	0	0.3	x	7%	14
S=C(Nc1ccccc1Cl)N(CCCN1CCOCC1)Cc1ccco1	-2	0.2	-27	-3%	13
COC(=O)c1cccnc1NC(=S)NNC(=O)c1ccncc1	0	-1.2	-4	-7%	1
CCN(CCO)C(=O)c1ccc2nc(Cc3cccc(Cl)c3)oc2c1	1	-0.5	x	x	x
CCN(C(=O)Cc1ccccc1OC)c1nnc(-c2ccncc2)s1	2	3.1	-33	-12%	-22
CC1CCC2(CC1)NC(=O)N(CC(=O)NC1(C#N)CCCCC1)C2=O (stereo unspecified)	4	-0.2	x	x	x
Cc1ccc(-n2c(C)cc(/C=C3/C(=O)NC(=O)N(Cc4ccco4)C3=O)c2C)cc1	6	0.9	-14	x	14
O=C(NCc1ccc(F)cc1)C1CCC(CNS(=O)(=O)c2cccs2)CC1 (stereo unspecified)	-2	-2.0	x	x	x
O=C(NC(NC(=O)c1c(F)cccc1F)c1ccc([N+](=O)[O-])cc1)c1c(F)cccc1F	-1	-1.8	x	x	x
COCC(C)NC(=O)c1ccc2nc(-c3ccccc3)c(-c3ccccc3)nc2c1 (stereo unspecified)	24	-0.4	x	x	x
CCOC1(C)OCC(=O)[C@]2(CCC3C4CCC5=CC(=O)C=CC5(C)C4C(=O)CC32C)O1 (stereo partly specified)	-4	1.1	-26	5%	7
CCC(C)N1C(=O)N(c2cccc(Cl)c2)C(C)(O)CC1(C)C (stereo unspecified)	-15	2.0	x	x	x
N#Cc1ccc(C(=O)Nc2cccc3ccccc23)c(F)c1	34	2.8	x	x	x
CC(C)Oc1ccc(/C=N/NC(=O)c2nnn(-c3nonc3N)c2CN(C)c2ccccc2)cc1	12	0.4	x	x	x
CCC1(CC)C(=O)Nc2ccccc21	0	0.1	x	-6%	x
CCN(CC)S(=O)(=O)c1ccc(NC(=O)c2ccc(CN3CCOCC3)cc2)cc1	2	-0.7	-6	-5%	5
O=C(COC(=O)CNC(=O)c1ccccc1F)NCC(F)(F)F	0	-2.9	x	0%	4
Cc1c(C(=O)NCCN2CCCC(O)C2)oc2c(F)cccc12 (stereo unspecified)	-4	-2.0	x	x	x
CCN(CC(=O)Nc1ccc(OC)cc1)C(=O)CN1C(=O)NC(C)(c2ccc3ccccc3c2)C1=O (stereo unspecified)	1	1.8	x	x	x
O=C(Nc1ncccn1)C1c2ccccc2Oc2ccccc21	4	1.8	-24	2%	0
COc1ccc(C(C)C)cc1S(=O)(=O)Nc1ccccn1	4	1.5	-29	0%	-1

2 consecutive compounds from above, for reference:
SMILES	Mtb bLac sens	RecA intein inh	YopH PTP inh	Mtb H37Rv	Arbovirus inh	others
O=C(Nc1ncccn1)C1c2ccccc2Oc2ccccc21	4	1.8	-24	2%	0
COc1ccc(C(C)C)cc1S(=O)(=O)Nc1ccccn1	4	1.5	-29	0%	-1

Additional compounds
SMILES	Mtb bLac sens	RecA intein inh	YopH PTP inh	Mtb H37Rv	Arbovirus inh	others
c1ccc2sc(NC3=NCCN3)nc2c1	7	15	-32	-4%	-3
Cc1ccc(C)n1-c1cc(S(=O)(=O)N2CCOCC2)ccc1N1CCCC1	3	0.5	-38	-8%	0
CCOC(=O)NNC(=O)c1ccc(Cl)cc1	-2	1.9	-26	1%	0
O=C(Nc1sc2c(c1C(=O)O)CCCC2)c1ccc(F)cc1	16	1.2	x	x	x
CC(=O)Nc1ccc(C(=O)N/N=C/C2CC3C=CC2C3)cc1 (stereo unspecified)	16	1.2	x	-4%	11
Cc1cc(=O)oc(C)c1C(=O)N1CCc2c([nH]c3ccccc23)C1C(C)C (stereo unspecified)	-2	-7.1	-48	2%	-12	Arbovirus inh repeat=-5
O=C(N/N=C/c1ccccn1)c1ccc(NC(=O)c2ccccc2Cl)cc1	5	1.1	x	x	x
Cc1ccc(OCC(=O)Nc2ccc3c(c2)OCO3)cc1C	56	1.7	x	6%	-32
COCC(C)NC(=S)NCCc1ccc(Cl)cc1Cl (stereo unspecified)	-3	x	x	-3%	0
O=C(Cn1cc2c(n1)CCCC2)N1CCCC1	0	-3.5	-51	-13%	-1	Arbovirus inh repeat=-3
O=C1COc2ccc(C(=O)COC(=O)Cc3ccc(F)cc3)cc2N1	-6	-0.2	x	x	x
CCOc1ccc(N(C(C)C(=O)N/N=C(\C)c2cccc(NC(=O)c3ccccc3)c2)S(C)(=O)=O)cc1 (stereo unspecified)	2	x	-8	-2%	-14
CC(NC(=O)c1ccc(Cl)s1)C1CCCO1 (stereo unspecified)	16	12	11	1%	-7
CCOC(=O)C1CCCN(C(=O)c2ccc3nc(-c4ccc(OC)c(OC)c4)c(-c4ccc(OC)c(OC)c4)nc3c2)C1 (stereo unspecified)	0	-7.4	x	x	x
O=C(O)c1ccc(N=NN2CCCC2)cc1	-12	-1.1	x	0%	10
O=C(O)c1cc(N/N=C/c2ccc(N3CCOCC3)cc2)ccc1Cl	-8	-5.0	x	x	x
CC(C)OC(=O)CSc1nnc2c(n1)[nH]c1ccc(F)cc12	36	-1.8	x	14%	9
CC1(C)CC(=O)C=C(c2ccc3c(c2)OCO3)C1	26	-0.9	x	1%	x
CCOc1ccc(-c2[nH]ncc2Oc2cccc(OC)c2)c(O)c1	3	-1.1	-30	8%	-44

Six entries out of the list, sorted by molecular weight, low to high:
SMILES	Mtb bLac sens	RecA intein inh	YopH PTP inh	Mtb H37Rv	Arbovirus inh	others
CCOC(=O)NNC(=O)c1ccc(Cl)cc1	-2	1.9	-26	1%	0
CC1(C)CC(=O)C=C(c2ccc3c(c2)OCO3)C1	26	-0.9	x	1%	x
CC(=O)Nc1ccc(C(=O)N/N=C/C2CC3C=CC2C3)cc1 (stereo unspecified)	16	1.2	x	-4%	11
Cc1ccc(OCC(=O)Nc2ccc3c(c2)OCO3)cc1C	56	1.7	x	6%	-32
CC(C)OC(=O)CSc1nnc2c(n1)[nH]c1ccc(F)cc12	36	-1.8	x	14%	9
COCC(C)NC(=S)NCCc1ccc(Cl)cc1Cl (stereo unspecified)	-3	x	x	-3%	0

Compound activity deposited in PubChem BioAssay by several laboratories.
